Source: PubChem BioAssay
Autofluor counter – counter-screen for toxin protease inhibitors: compound fluorescence | compound autofluorescence counterscreen, microsphere flow cytometry; hits give high values | fluorescence intensity (no concentration beside the values) | hit rate 3.1% among 360,000 | AID 624483;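 active = at least 3 SD above the mean of all compounds, about 16000 in these data; inconclusive = too few beads counted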;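 also: 100 nL of 1 mM stock went into each well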
Mtb hypoxia rep – Mtb hypoxia fluorescent reporter inhibition | M. tuberculosis hypoxia-regulated fluorescent reporter, fluorescence | fluorescence inhibition, % (concentration not given with the values) | hit rate 0.1% among 300,000 | AID 1159583;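 active = 35 to 45% if threefold the growth effect, above 45% if 1.5-fold the growth effect; inactive = the rest, general growth blockers included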;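 also: wells of about 50 µL received 100 nL stock; 0% = vehicle wells and 100% = reference inhibitor wells; whole bacteria with a GFP reporter of the hypoxia response; strong numbers were not always called active; many hits fall short of the cut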
ugtP null kill – kills S. aureus RN4220 lacking UgtP | S. aureus RN4220 ugtP deletion, OD600 growth, 16 h; some inactives read as strong as hits | growth inhibition, % (no concentration beside the values) | hit rate 0.54% among 330,000;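 active = z-score under -3 and OD600 up to 0.15 on both plates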;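 also: plate controls were untreated wells for no effect and antibiotic for full effect; wells of about 80 µL received 100 nL stock; the first replicate is given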
PrP 5UTR inh – inhibition of PrP 5' UTR reporter expression | cell-based PrP 5' UTR mRNA reporter, plate reader | inhibition, % (test concentration not listed) | AID 488862 | hit rate 0.35% among 340,000;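 active = every replicate at 50% or more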;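 also: 0 = median of the neutral control wells; tested in H4 reporter cells; numbers are from one replicate; inactives centre near -14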
BJeLR viability – BJeLR cell viability loss; BJeLR (HRASV12) viability, CellTiter-Glo ATP luminescence, 48 h; reference of the scale not given here; inhibition, % (concentration not given with the values); hit rate 0.17% among 300,000; AID 1554;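 active = replicate mean above 50%; inconclusive = above 50% but judged a plate artefact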;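 also: 50 nL library stock added to about 25 µL; numbers are from one replicate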
RN4220 kill – S. aureus RN4220 growth inhibition; OD600, 16 h; inhibition, % (no concentration beside the values); hit rate 0.33% among 330,000;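 active = z-score of -3 or lower and OD600 up to 0.18 on both plates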;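 also: plate controls were untreated cells for no effect and reference antibiotic for full effect; stock transfer was 100 nL into about 80 µL; one replicate is shown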
Mtb hypoxia rep growth – further read-out of Mtb hypoxia rep, marked with its call; growth inhibition, %; measured here: M. tuberculosis growth (absorbance);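 0% = vehicle and 100% = reference antibiotic; read after six days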
* = called active by the depositor; u = inconclusive; x = not tested or not shown; & = joins results of further samples.

SMILES	Autofluor counter	Mtb hypoxia rep	Mtb hypoxia rep growth	ugtP null kill	PrP 5UTR inh	BJeLR viability	RN4220 kill
Cn1ncc([N+](=O)[O-])c1C(=O)NN=Cc1ccc(F)cc1	x	-2	3	9	x	x	6.1
Cn1c(CN2CCCC2)nc2cc(NC(=O)COc3ccc([N+](=O)[O-])cc3)ccc21	2473	10	-2	1	-14	3	1.1
Cc1ccc(-c2ccc(C=NN3C(=O)C4C5C=CC(CC5)C4C3=O)o2)c([N+](=O)[O-])c1 (configuration not stated)	x	-3	-2	19	x	x	2.3
COc1ccc(CNC(=O)C2CCCN(S(=O)(=O)c3ccc(Br)s3)C2)cc1 (configuration not stated)	4916	-1	2	0	-12	-8	-8.3
COc1ccc(CN2C(=O)C(C)SC2=NN=Cc2ccco2)cc1 (configuration not stated)	x	4	5	15	x	x	3.5
O=C1[C@@H](Oc2ccccc2)[C@@H](c2cccnc2)N1c1ccccc1	3189	4	8	10	-19	x	4.6
CCN(C(=O)CSc1nc2ccccc2o1)c1c(N)n(Cc2ccccc2)c(=O)[nH]c1=O	x	7	1	13	-21	-8	3.1
Cc1ccc(OCCOC(=O)CCc2nc3ccccc3c(=O)[nH]2)cc1	2076	0	12	3	-11	0	6.1
COc1ccc(C(=O)N2CCNC(=O)C2)cc1S(=O)(=O)Nc1ccc(Br)cc1	3129	-2	0	-3	-32	x	1.8
Cc1ccc(C(=O)NCC(=O)OCc2cccc(Br)c2)cc1	u	12	1	3	-13	-3	0.4
Cc1c(NC(=O)/C(C#N)=C/c2ccc(-c3cc(Cl)ccc3Cl)o2)c(=O)n(-c2ccccc2)n1C	2703	-5	-19	-19	-13	2	-7.1
CCN(C(=O)CSc1nnc(NC2CCCCC2)s1)C1CCS(=O)(=O)C1 (configuration not stated)	8059	8	4	17	-17	1	7.1
COc1ccc(S(=O)(=O)N(C)CC(=O)N2CCCCC2)cc1Cl	3029	19	-21	-1	-1	1	-6.4
O=C(O)c1sccc1OCc1ccccc1	2174	1	8	-2	-24	-3	1.6
O=C(CSc1nnc(Cn2nnc3ccccc32)o1)N(Cc1ccc(Cl)cc1)c1ccccc1	4696	6	7	1	-10	2	-2.2
CCOC(=O)C1=C(C)n2c(s/c(=C/c3cccc([N+](=O)[O-])c3)c2=O)=NC1c1ccc(O)c(OC)c1 (configuration not stated)	7953	x	x	x	-16	-8	x
COc1ccc(S(=O)(=O)N2CCC(C(=O)NCCCn3ccnc3)CC2)cc1C	5270	2	-5	3	-9	8	4.5
COC(=O)Cc1cccc2c(=O)c3ccccc3oc12	3155	14	11	3	-15	8	7.9
CCCCc1ccc(NC(=O)CSc2nnc(CNC(=O)c3ccco3)o2)cc1	5627	6	4	6	-12	-3	3.2
Cc1cc(=O)[nH]c(SCC(=O)NCCOc2ccccc2)n1	9248	4	5	-2	-21	12	1.1
Cc1ccccc1NC(=O)Nc1nnc(Cc2ccc([N+](=O)[O-])cc2)s1	9897	8	4	3	-16	3	4.1
CCOc1cc(C)ccc1OCc1nnc(SCC(=O)c2cccc([N+](=O)[O-])c2)n1C	12778	-3	7	-4	-17	2	-2.6
COc1cc(NC(C)CCCN)c2ncccc2c1 (configuration not stated)	5496	x	x	x	-29	-7	x
Cc1ccccc1C1CC(=O)Oc2cc(O)ccc21 (configuration not stated)	2902	7	6	-2	-9	x	6.8
CCCc1nc(SCC(=O)N2c3ccccc3CC2C)c2c(C)c(C)sc2n1 (configuration not stated)	9149	19	5	27	5	-2	0.3
O=C(NCCC1=CCCCC1)c1ccc2c(=O)n3c(nc2c1)CCCCC3	5658	7	8	6	-34	-5	4.3
CCOC(=O)c1sc(NC(=O)C(CC)Sc2nccn2C)nc1C (configuration not stated)	7309	4	-5	9	-19	-2	4.4
CCN(CC)S(=O)(=O)c1ccc2oc(C(=O)NCc3ccc(F)cc3)c(C)c2c1	4044	1	3	-13	-13	x	2.1
CCNC(=O)C/C(C)=N/NC(=O)C(=O)Nc1ccc(CC)cc1	4095	x	x	x	-35	8	x
CS(=O)(=O)c1ccc2nc(NC(=O)c3ccco3)sc2c1	5945	10	8	12	-66	16	4.9

A run of entries taken from the entries so far:
SMILES	Autofluor counter	Mtb hypoxia rep	Mtb hypoxia rep growth	ugtP null kill	PrP 5UTR inh	BJeLR viability	RN4220 kill
COc1ccc(S(=O)(=O)N2CCC(C(=O)NCCCn3ccnc3)CC2)cc1C	5270	2	-5	3	-9	8	4.5
COC(=O)Cc1cccc2c(=O)c3ccccc3oc12	3155	14	11	3	-15	8	7.9
CCCCc1ccc(NC(=O)CSc2nnc(CNC(=O)c3ccco3)o2)cc1	5627	6	4	6	-12	-3	3.2
Cc1cc(=O)[nH]c(SCC(=O)NCCOc2ccccc2)n1	9248	4	5	-2	-21	12	1.1
Cc1ccccc1NC(=O)Nc1nnc(Cc2ccc([N+](=O)[O-])cc2)s1	9897	8	4	3	-16	3	4.1
CCOc1cc(C)ccc1OCc1nnc(SCC(=O)c2cccc([N+](=O)[O-])c2)n1C	12778	-3	7	-4	-17	2	-2.6
COc1cc(NC(C)CCCN)c2ncccc2c1 (configuration not stated)	5496	x	x	x	-29	-7	x
Cc1ccccc1C1CC(=O)Oc2cc(O)ccc21 (configuration not stated)	2902	7	6	-2	-9	x	6.8
CCCc1nc(SCC(=O)N2c3ccccc3CC2C)c2c(C)c(C)sc2n1 (configuration not stated)	9149	19	5	27	5	-2	0.3
O=C(NCCC1=CCCCC1)c1ccc2c(=O)n3c(nc2c1)CCCCC3	5658	7	8	6	-34	-5	4.3
CCOC(=O)c1sc(NC(=O)C(CC)Sc2nccn2C)nc1C (configuration not stated)	7309	4	-5	9	-19	-2	4.4
CCN(CC)S(=O)(=O)c1ccc2oc(C(=O)NCc3ccc(F)cc3)c(C)c2c1	4044	1	3	-13	-13	x	2.1
CCNC(=O)C/C(C)=N/NC(=O)C(=O)Nc1ccc(CC)cc1	4095	x	x	x	-35	8	x
CS(=O)(=O)c1ccc2nc(NC(=O)c3ccco3)sc2c1	5945	10	8	12	-66	16	4.9

Next results
SMILES	Autofluor counter	Mtb hypoxia rep	Mtb hypoxia rep growth	ugtP null kill	PrP 5UTR inh	BJeLR viability	RN4220 kill
Cc1ccc(/C=C/C(=O)O)cc1S(=O)(=O)N1CCc2ccccc2C1	4527	3	1	5	-23	1	10
N#CCN1CCN(CC(=O)c2ccc(Br)cc2)CC1	5547	-8	-2	-1	-7	-1	1.9
CCCSc1nsc(NC(=O)CC)n1	4553	2	-1	3	-64	-2	6.9
CN1CCN(c2nnc(-c3ccc(F)cc3)c3ccccc23)CC1	5741	7	5	2	-3	3	-2.7
CCCCCn1c(=O)c(C(=O)NCc2ccc(Cl)cc2)c(O)c2ccccc21	3628	-11	-6	21	-27	-2	17
Cc1ccc(-n2nnnc2SC(C)C(=O)Nc2ccccc2-c2ccccc2)cc1 (configuration not stated)	2689	12	2	11	-15	-10	2.3
CNC(=O)c1ccccc1NC(=O)c1ccco1	2896	6	9	-4	-29	1	-15
COc1ccc(C(=O)C(C)OC(=O)c2sc(C)nc2C)cc1 (configuration not stated)	8638	4	8	-3	-24	x	-1.2
COc1cccc(-n2nc(C#N)c(Cl)cc2=O)c1	u	22	20	10	-14	-29	40
CC1Cc2ccccc2N1C(=O)CSc1nnc(Cc2ccccc2)n1CCc1ccccc1 (configuration not stated)	3165	4	16	-12	-16	5	-17
O=C1N(c2ccccc2)C(=Nc2ccccc2)SC12CC2	5770	-6	13	2	-7	3	0.8
O=C(Cc1ccccc1)NC1CCN(S(=O)(=O)c2ccc(C(=O)O)cc2)CC1	7370	-1	2	3	-24	-13	5.4
Cc1cc(C)c2c(=O)[nH]n(C3CCCCCC3)c2n1	4133	-1	7	-2	-11	5	3.7
Cc1c(OC(C)C(=O)NCC2CCC(C(=O)O)CC2)ccc2c1oc(=O)c1ccccc12 (configuration not stated)	5469	x	x	-3	-19	-5	-0.1
COc1ccc(CCNC(=O)c2cc(-c3ccc(Cl)c(Cl)c3)oc2C)cc1	2175	9	5	6	-13	-7	-14
CC(=O)OC[C@H]1O[C@@H](Sc2cccc3cccnc23)[C@H](OC(C)=O)[C@@H](OC(C)=O)[C@H]1OC(C)=O	8703	5	12	14	-7&-11	-5	3.5
CC(O)[C@H]1CNC(=O)C(=O)N1CC1(c2ccccc2)CC1 (some centres not stated)	2775	x	x	x	-21	7	x
CCOc1ccc(Br)cc1S(=O)(=O)Nc1cccc(S(=O)(=O)Nc2ccccc2C(=O)O)c1	x	9	-2	45	x	x	0.2
NCC(O)(c1ccc(Cl)cc1)c1ccc(Cl)cc1	2254	-6	-5	-15	-5	-1	-4.3
Nc1c(-c2ccccc2)c(CN2CCOCC2)nn1-c1ccccc1	2238	12	5	2	-5	-2	3.1
CN(C)CC(C)(C)CNS(=O)(=O)c1cccc2nsnc12	2573	13	4	0	-32	-13	2.3
CC(C)(O)[C@H](O)COc1c2occc2cc2ccc(=O)oc12	3975	x	x	x	7	-2	x
COC(=O)[C@]1(C)N[C@H](CN(C)C(=O)c2ccc(C)cc2)[C@@H]2C(=O)N(Cc3ccccc3)C(=O)[C@@H]21	4036	4	8	2	8	x	1.8
CC(=O)c1c(C(C)=O)c(C)n(NC(=O)c2ccncc2)c1C	2976	7	7	-1	-37	-2	4.0
COc1cc(C(=O)NCCCNc2ccc([N+](=O)[O-])cc2)cc(OC)c1OC	2231	-6	4	4	-3	14	2.3
CN1CCN(c2nc(-c3cccnc3)nc3ccccc23)CC1	8262	8	7	9	-15	-2	0.4
COc1ccc(C#Cc2ccc3c(=O)c4ccccc4n(C)c3c2)cc1	x	11	3	-9	-29	-14	13
Cc1c(NC(=S)NC(=O)c2ccc(COc3ccccc3)cc2)cccc1C(=O)O	5790	-12	8	-16	-16	6	12
O=C(OCCN=C1NS(=O)(=O)c2ccccc21)c1ccncc1	10489	3	3	4	-19	-2	2.0
COCCCNC(=S)NNC(=O)c1cc(-c2ccncc2)nc2ccccc12	5238	5	13	0	-5	10	-0.3
Cc1cc(N2C(=O)C(O)=C(C(=O)c3ccco3)C2c2cccc(O)c2)no1 (configuration not stated)	5811	-1	-5	6	-11	-3	6.6
CC1(c2ccc([N+](=O)[O-])cc2)NC(=O)N(CC(=O)c2ccc3c(c2)OCO3)C1=O (configuration not stated)	u	-1	6	10	-7	5	3.1
Cc1ccc(NC(=O)c2cccc3ccccc23)cc1	4355	8	11	13	-37	4	3.4
COc1ccc(CNCC(O)(c2ccccc2)c2ccc(F)cc2)cc1OC (configuration not stated)	3639	2	-4	4	-30	5	0.7
Cc1cnc(C(=O)OCC(=O)Nc2ccccc2-c2ccccc2)cn1	8529	-1	8	-2	-21	x	-1.4
O=[N+]([O-])c1ccccc1N=Nc1ccc(O)cc1	6406	-2	5	-14	-23	1	7.8
CCc1nnc(NC(=O)CCNC(=O)c2ccccc2Cl)s1	4404	8	9	7	-25	4	-2.4
O=C(NCc1cccc(Cl)c1)c1cccc(S(=O)(=O)N2CCCC2)c1	3752	-4	5	-9	-27	x	-3.9
CCN(CC)CCn1c2c(c(SCC(=O)Nc3ccc4c(c3)OCO4)nc1=O)CCC2	x	3	8	10	-4	-5	0.6
O=C(CCNC(=O)c1ccc(Br)cc1)Nc1cccc(S(=O)(=O)N2CCCC2)c1	x	-1	-4	4	-29	-5	1.4
O=C(Nc1nccs1)C1(c2ccc(Cl)cc2)CC1	4622	-2	-1	-7	-23	2	-1.5
Cc1c(Cl)c([N+](=O)[O-])nn1CC(=O)NCc1cccnc1	4804	-1	0	4	-12	5	2.7
CCOc1ccc(OCc2cccc(C(=O)N3CCCC3)c2)cc1	4295	3	25	2	7	-3	-0.3
CCOc1ccccc1OCCCC(=O)NNC(=O)c1ccc(F)cc1	2993	3	-4	-5	8	x	-3.4
